Screening data: PubChem BioAssay, several laboratories
Sa ugtP lethal: growth inhibition of ugtP-null S. aureus, primary screen, RN4220 ugtP deletion, OD600; 16 h; some inactives read as strong as hits; 330,000 tested, 0.54% active; growth inhibition, % (no concentration beside the values);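 active = z-score under -3 and OD600 up to 0.15 on both plates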;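 also: plate controls were untreated wells for no effect and antibiotic for full effect; wells of about 80 µL received 100 nL stock; the first replicate is given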
Mtb hypoxia rep: PubChem AID 1159583; M. tuberculosis hypoxia-regulated fluorescent reporter, fluorescence; fluorescence inhibition, % (concentration not given with the values); 300,000 tested, 0.1% active;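 active = 35 to 45% if threefold the growth effect, above 45% if 1.5-fold the growth effect; inactive = the rest, general growth blockers included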;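 also: wells of about 50 µL received 100 nL stock; 0% = vehicle wells and 100% = reference inhibitor wells; whole bacteria with a GFP reporter of the hypoxia response; strong numbers were not always called active; many hits fall short of the cut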
BJeLR lethal: MLPCN primary cell-based screen for lethality selective to Ras in HRASV12 cells | 300,000 tested, 0.17% active | inhibition, % (no concentration beside the values) | BJeLR (HRASV12) viability, CellTiter-Glo ATP luminescence, 48 h; reference of the scale not given here;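 active = replicate mean above 50%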;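 also: 50 nL library stock added to about 25 µL; numbers are from one replicate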
Sa RN4220 lethal: growth inhibition of S. aureus RN4220, primary screen, OD600. 16 h. inhibition, % (concentration not given with the values). 330,000 tested, 0.33% active;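 active = z-score of -3 or lower and OD600 up to 0.18 on both plates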;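 also: plate controls were untreated cells for no effect and reference antibiotic for full effect; stock transfer was 100 nL into about 80 µL; one replicate is shown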
Autofluor counter: compound fluorescence in toxin protease inhibitor counterscreen | compound autofluorescence counterscreen, microsphere flow cytometry; stronger effect = higher value | fluorescence intensity (concentration not given with the values) | 360,000 tested, 3.1% active;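 active = at least 3 SD above the mean of all compounds, about 16000 in these data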;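 also: 100 nL of 1 mM stock went into each well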
PrP UTR inh: inhibition of PrP 5' UTR reporter expression; cell-based PrP 5' UTR mRNA reporter, plate reader; inhibition, % (concentration not given with the values); 340,000 tested, 0.35% active;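 active = every replicate at 50% or more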;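 also: 0 = median of the neutral control wells; tested in H4 reporter cells; numbers are from one replicate; inactives centre near -14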
Mtb hypoxia rep growth: second read-out of Mtb hypoxia rep, no call of its own (marks repeat the call); growth inhibition, %; measured here: M. tuberculosis growth (absorbance);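 0% = vehicle and 100% = reference antibiotic; read after six days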
An asterisk follows results filed as active; . = no result given.

SMILES	Sa ugtP lethal	Mtb hypoxia rep	Mtb hypoxia rep growth	BJeLR lethal	Sa RN4220 lethal	Autofluor counter	PrP UTR inh
COc1cc(NC(=O)C2=C(N3CCOCC3)/C(=C\c3ccc(Br)cc3)CC2)cc(OC)c1OC	.	.	.	2	.	1983	-23
CCOC(=O)CSc1nn(-c2ccccc2)c(=S)s1	2	4	-1	11	7.9	3386	5
CCC(=O)Nc1cccc(C2=NOC3(C2)C[C@@H](C(N)=O)N(C(=O)CC)C3)c1 (stereo partly specified)	.	.	.	-5	.	2988	3
CCOc1ccccc1NC(=O)CCNS(=O)(=O)c1cccc2nsnc12	8	3	5	-3	0.9	3455	-28
COc1ccc(/C(N)=N/OC(=O)c2cccc([N+](=O)[O-])c2)cc1OC	1	.	.	5	-0.2	2661	-16
CC1CCN(CC(=O)Nc2ccc(S(=O)(=O)N3CCCCC3)cc2)CC1	0	12	5	0	1.4	2980	-2
COCCNC(=O)CSc1ncnc2sc(-c3ccccc3)cc12	4	6	8	-2	-2.2	3547	4
CC(C)Oc1ccc(CNC(=S)N/N=C/c2ccc([N+](=O)[O-])cc2)cc1	.	.	.	-8	.	6415	-12
CN(C)c1c(F)cc(C(=O)NC(=O)NCc2cccnc2)cc1F	7	1	3	0	4.2	5549	-6
CN(C)c1nc(N)c2nccnc2n1	6	12	0	.	1.3	2759	-28
COc1ccc(CN(C(=O)c2cc(=O)c3ccccc3o2)C2CCS(=O)(=O)C2)cc1OC (stereo unspecified)	4	12	13	-1	1.5	5208	-9
O=C1CC(N2CCN(c3cccc(C(F)(F)F)c3)CC2)C(=O)N1c1ccc(F)cc1 (stereo unspecified)	-4	1	15	-5	3.1	22486*	-11
C#CCOCCOCCOCCNc1nc(N2CCN(C(=O)[C@H](CCCCN)n3cc(C(N)CC(C)C)nn3)CC2)nc(N2CCN(C(=O)[C@H](CCC(=O)O)n3cc(C(N)[C@H](C)CC)nn3)CC2)n1 (stereo partly specified)	.	.	.	6	.	4463	-9
NC(=NOC(=O)COc1ccc(Br)cc1)c1cccc([N+](=O)[O-])c1	5	17	-2	.	5.9	.	.
CC(C)(C)OC(=O)CNC(=O)c1[nH]cnc1C(=O)NCCCCCNC(=O)OC(C)(C)C	-13	9	9	12	4.1	4111	0
O=C(NC1CCOCC1)C1CCC(=O)N(CCc2ccc(Cl)cc2)C1 (stereo unspecified)	9	7	2	0	4.9	5325	-16
CC1CCC(=NNS(=O)(=O)c2ccc([N+](=O)[O-])cc2)CC1 (stereo unspecified)	-2	6	-2	.	6.6	4177	-4
COC(=O)c1sc(N2C(=O)c3oc4ccccc4c(=O)c3C2c2cccs2)nc1C (stereo unspecified)	6	.	.	.	-2.9	3652	-16
CCOc1ccc(C(CC(=O)O)NC(=O)c2cccs2)cc1 (stereo unspecified)	12	-6	0	12	4.4	2520	-13
N#CC(C#N)=C(C#N)c1ccc(Nc2ccccc2)cc1	-2	6	10	-3	1.6	4173	-30
CCCCC1=NC2(CCCC2)C(=O)N1Cc1ccc(-c2ccccc2-c2nn[nH]n2)cc1	-2	-1	3	0	9.1	.	.
O=S(=O)(NC1=NCCC1)c1cccc(NS(=O)(=O)c2ccc(F)c(Cl)c2)c1	-1	-2	4	.	1.0	3909	-14
Oc1ccc[n+](CC(O)c2ccccc2)c1 (stereo unspecified)	5	3	-1	-3	3.8	3213	-12
O=C(C1=C(O)C(=O)N(CCCn2ccnc2)C1c1ccccc1)c1ccco1 (stereo unspecified)	6	8	8	-3	1.8	4305	5
Cn1c(SCC(=O)Nc2cccc(NC(=O)c3cccs3)c2)nnc1-c1ccncc1	5	.	.	.	-1.1	4652	-3
CNC[C@H](Cc1ccccc1)NC[C@@H](Cc1cccc2ccccc12)NCCc1ccc(C)cc1	.	.	.	5	.	4160	-3
Cc1nc2ncnn2c(C)c1CCC(=O)NCCCN1CCN(c2cccc(Cl)c2)CC1	8	11	7	10	0.9	5448	0
Cc1c(Cl)c(C(=O)NNC(=S)Nc2ccccc2)nn1C	-1	6	4	8	4.4	3976	-30
CN(CCC#N)c1ccc(/C=C(\C#N)c2ccccn2)cc1	-1	7	2	25	3.6	9076	-11
CCn1nc(C)c(/C=N/NC(=O)c2ccoc2C)c1C	.	.	.	6	.	4252	-69
CCOc1ccc2[nH]c(=O)c(CN(CCCO)C(C)=O)cc2c1	0	9	-7	-5	2.5	3207	-106
CC(C)[C@H](NS(=O)(=O)c1cccc(C(F)(F)F)c1)C(=O)OCC(N)=O	12	9	3	.	8.3	4348	-22
CCc1ccc(C(=O)OCC(=O)c2c(N)n(CC(C)C)c(=O)n(C)c2=O)cc1	12	4	-1	0	3.6	4281	-22
Nc1nc(C(=O)N2CCOCC2)nn1C(=O)c1ccc(Cl)cc1	-4	.	.	3	-0.1	5618	-20
N#CC(c1ccccc1)(c1ncc(C(F)(F)F)cc1Cl)N1CCOCC1 (stereo unspecified)	-2	-2	1	-10	3.1	10895	.
O=C(Nc1ccc(F)cc1)C(Sc1nnc2ccccn12)c1ccccc1 (stereo unspecified)	7	9	15	3	7.1	8689	-4
O=C(O)c1cccc(NC(=S)NC(=O)c2cccc(OCc3ccccc3)c2)c1	-7	3	4	2	10	3583	-12
COC(=O)c1sc(-c2ccc(Cl)cc2)cc1N	-11	-9	9	-5	1.6	5556	-59
COc1ccccc1CNCC(=O)NCc1ccc(C)cc1	5	7	6	-1	2.7	3221	-16
CC(=O)Nc1ccc(S(=O)(=O)NCC2CCC(C(=O)NCCc3ccccc3)CC2)cc1 (stereo unspecified)	-1	-6	2	-17	0.2	6574	3
O=C(NC1CCN(C(=O)NCc2ccccc2)CC1)c1ccco1	1	18	16	4	3.5	3683	-40
COc1cccc(-c2nnn(CC(=O)Nc3ccc(C)cc3C)n2)c1OC	3	6	14	-6	2.3	9244	-13
CC(C)(C)c1ccc(S(=O)(=O)N2CC(=O)Nc3ccccc32)cc1	-10	5	3	-4	1.4	23729*	-28
O=C(NC(=S)N1CCN(c2ccccc2)CC1)c1ccc(S(=O)(=O)N2CCOCC2)cc1	8	-3	-10	-9	0.6	4820	.
C=C(C)CNC(=S)NN=C(C)c1cccc(NC(C)=O)c1	-1	8	0	.	0.5	.	.
C=C(C)c1cccc(C(C)(C)NC(=O)N2CCCCC2CC)c1 (stereo unspecified)	8	4	2	-1	2.3	3368	-4
Cc1cccc(C=NNc2nnc(-c3ccccc3)c(=O)[nH]2)c1	-9	4	5	.	3.7	.	.
O=C(NC(C(=O)N/N=C/c1ccccc1)c1n[nH]c(=O)c2ccccc12)c1ccccc1 (stereo unspecified)	.	.	.	2	.	3560	-30
O=C(CCSc1ccccc1)N1CCN(c2ccccc2)CC1	6	6	-4	0	0.8	2545	-50
CCCn1cnc2scc(-c3ccc(C)cc3)c2c1=O	7	4	3	4	4.0	2153	-4
COc1cc(C=NO)cc(Cl)c1OC	7	13	1	.	3.4	.	.
COc1ccc(NC(=O)CSCc2ccc(C#N)cc2)c(OC)c1	11	14	13	-9	7.8	3646	-6
CCOC(=O)C(CC(=O)O)NCc1ccco1 (stereo unspecified)	1	-6	-2	1	4.2	4082	-19
Cn1nc(C(=O)NC2CCCCC2)c2c1-c1ccccc1S(=O)(=O)C2	5	6	2	-1	3.4	4257	-6
CCCCn1nc(NC(=O)c2cccs2)c2cc3ccccc3nc21	-32	-18	0	-3	6.5	21346*	-7
CCCn1c(=S)[nH]c2cc(C(=O)N3CCCC(C(=O)OCC)C3)ccc2c1=O (stereo unspecified)	-5	3	3	3	0.1	7805	-42
Cc1cc2c(cc1C)N(C(=O)CSC1=NCCS1)C(C)(C)c1ssc(=S)c1-2	-24	-1	2	1	3.2	21080*	-17
COc1cccc2cc(C(=O)N3C(C)CCCC3C)c(=O)oc12 (stereo unspecified)	1	10	-19	-10	8.1	2479	-9
CC(=O)N(c1ccc(Cl)cc1)c1cn(C(C)=O)c2ccccc12	1	12	-3	4	-5.6	3437	1
Cc1cc(C2=NNC(=Nc3ccccc3)SC2)c(C)n1C	13	0	9	0	16	3761	-131

Another view of 13 compounds above.
Results follow in this order: Sa ugtP lethal, Mtb hypoxia rep, Mtb hypoxia rep growth, BJeLR lethal, Sa RN4220 lethal, Autofluor counter, PrP UTR inh
- O=C(NC(C(=O)N/N=C/c1ccccc1)c1n[nH]c(=O)c2ccccc12)c1ccccc1 (stereo unspecified)
  ., ., ., 2, ., 3560, -30
- O=C(CCSc1ccccc1)N1CCN(c2ccccc2)CC1
  6, 6, -4, 0, 0.8, 2545, -50
- CCCn1cnc2scc(-c3ccc(C)cc3)c2c1=O
  7, 4, 3, 4, 4.0, 2153, -4
- COc1cc(C=NO)cc(Cl)c1OC
  7, 13, 1, ., 3.4, ., .
- COc1ccc(NC(=O)CSCc2ccc(C#N)cc2)c(OC)c1
  11, 14, 13, -9, 7.8, 3646, -6
- CCOC(=O)C(CC(=O)O)NCc1ccco1 (stereo unspecified)
  1, -6, -2, 1, 4.2, 4082, -19
- Cn1nc(C(=O)NC2CCCCC2)c2c1-c1ccccc1S(=O)(=O)C2
  5, 6, 2, -1, 3.4, 4257, -6
- CCCCn1nc(NC(=O)c2cccs2)c2cc3ccccc3nc21
  -32, -18, 0, -3, 6.5, 21346*, -7
- CCCn1c(=S)[nH]c2cc(C(=O)N3CCCC(C(=O)OCC)C3)ccc2c1=O (stereo unspecified)
  -5, 3, 3, 3, 0.1, 7805, -42
- Cc1cc2c(cc1C)N(C(=O)CSC1=NCCS1)C(C)(C)c1ssc(=S)c1-2
  -24, -1, 2, 1, 3.2, 21080*, -17
- COc1cccc2cc(C(=O)N3C(C)CCCC3C)c(=O)oc12 (stereo unspecified)
  1, 10, -19, -10, 8.1, 2479, -9
- CC(=O)N(c1ccc(Cl)cc1)c1cn(C(C)=O)c2ccccc12
  1, 12, -3, 4, -5.6, 3437, 1
- Cc1cc(C2=NNC(=Nc3ccccc3)SC2)c(C)n1C
  13, 0, 9, 0, 16, 3761, -131

More structures follow.
SMILES	Sa ugtP lethal	Mtb hypoxia rep	Mtb hypoxia rep growth	BJeLR lethal	Sa RN4220 lethal	Autofluor counter	PrP UTR inh
C=CCc1cccc(C=NNC(=O)COc2ccc(-n3cnnn3)cc2)c1O	9	8	4	.	7.8	.	.
Cn1c(=O)n(C)c2cc(S(=O)(=O)NCCO)ccc21	11	0	-1	2	3.4	10736	-19
Cc1c(C(=O)NNS(=O)(=O)c2ccccc2Cl)sc(=S)n1C	-4	4	3	0	4.3	9731	-9
Cc1cc2c(Nc3ccccc3)ncnc2s1	6	10	1	5	-3.9	4138	-30
CCn1ncc(Br)c1C(=O)Nc1ccc(C(C)C)cc1	2	-5	-7	-5	3.5	3082	-16
Cc1ccccc1-n1cnc2c(sc3nc(N4CCOCC4)c4c(c32)CCCC4)c1=O	-6	2	2	2	-6.3	5995	-1
CCC1CCCCN1c1nc(-c2ccncc2)nc2ccccc12 (stereo unspecified)	5	3	4	14	-2.8	8288	3
COc1ccc(OC)c(S(=O)(=O)NN=Cc2cn(CC(N)=O)c3ccccc23)c1	4	-6	-7	.	0.8	.	.
CC(=O)N(/N=C1/C(=O)Nc2ccccc21)c1ccccc1	.	.	.	4	.	3704	-36
C=CCn1c(=O)c2ccc(C(=O)NCc3ccccc3)cc2n(Cc2ccc(C)cc2)c1=O	5	-2	0	7	1.2	5522	-33
CC(CS(=O)(=O)c1ccccc1)=NO	9	4	2	.	5.0	.	.
CC(CS(=O)(=O)c1ccc(Cl)cc1)=NNC(N)=S	0	16	12	.	0.8	.	.
Cc1ccc(NC(=O)c2ccc(S(=O)(=O)NCC3CCCO3)cc2)cc1C (stereo unspecified)	1	-2	17	6	0.2	4656	-6
COc1ccc(C(CN(C)C)C2(O)CCCCC2)cc1 (stereo unspecified)	-4	-2	-3	12	1.6	5267	-15
CCn1c(N2CCN(CC(=O)c3c(C)n(C)c4ccc(OC)cc34)CC2)nc2c1c(=O)[nH]c(=O)n2C	.	.	.	15	.	3574	-6
COC(=O)N/N=C/c1ccccc1OCCOc1ccc(OC)cc1	.	.	.	11	.	3842	-26
